A647 fluor: qHTS Assay for Spectroscopic Profiling in A647 Spectral Region. Compound fluorescence, A647 channel (570/671 nm), Tris buffer. 59,000 tested, under 10 active. AID 592, 2007. max dye-equivalent concentration, M; active means above 1 µM dye equivalent; inconclusive means 0.1 to 1 µM; inactive means 0.1 µM or less;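 note: values scaled relative to a standard on each plate; highest value over a series up to 38 µM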
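Tris 100 mM pH 8.0; cpd + A647 stds pin-transferred; 15 min RT; CCD imager, ex 570/em 671. Output = A647-equivalent conc. per cpd conc.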
TSHR ag: qHTS Assay for Agonists of the Thyroid Stimulating Hormone Receptor. HEK293-CNG-TSHR cells (CNG channel as cAMP sensor), membrane potential dye, cAMP. Potency, µM (top dose mostly 57.1 µM), for inactives: at the top dose activation, actives largely listed as activators. 73,000 tested, 0.48% active; active = well fitted activation curve of enough size with the parental cells flat; inconclusive = any curve in the parental cells; inactive = parental cells flat and receptor cells flat or falling; note: potency is the fitted concentration of half-maximal effect; % of control where 0% means no effect; weak receptor curves with flat parental cells got no call and are not listed
Target sequence (P16473 whole entry, looked up): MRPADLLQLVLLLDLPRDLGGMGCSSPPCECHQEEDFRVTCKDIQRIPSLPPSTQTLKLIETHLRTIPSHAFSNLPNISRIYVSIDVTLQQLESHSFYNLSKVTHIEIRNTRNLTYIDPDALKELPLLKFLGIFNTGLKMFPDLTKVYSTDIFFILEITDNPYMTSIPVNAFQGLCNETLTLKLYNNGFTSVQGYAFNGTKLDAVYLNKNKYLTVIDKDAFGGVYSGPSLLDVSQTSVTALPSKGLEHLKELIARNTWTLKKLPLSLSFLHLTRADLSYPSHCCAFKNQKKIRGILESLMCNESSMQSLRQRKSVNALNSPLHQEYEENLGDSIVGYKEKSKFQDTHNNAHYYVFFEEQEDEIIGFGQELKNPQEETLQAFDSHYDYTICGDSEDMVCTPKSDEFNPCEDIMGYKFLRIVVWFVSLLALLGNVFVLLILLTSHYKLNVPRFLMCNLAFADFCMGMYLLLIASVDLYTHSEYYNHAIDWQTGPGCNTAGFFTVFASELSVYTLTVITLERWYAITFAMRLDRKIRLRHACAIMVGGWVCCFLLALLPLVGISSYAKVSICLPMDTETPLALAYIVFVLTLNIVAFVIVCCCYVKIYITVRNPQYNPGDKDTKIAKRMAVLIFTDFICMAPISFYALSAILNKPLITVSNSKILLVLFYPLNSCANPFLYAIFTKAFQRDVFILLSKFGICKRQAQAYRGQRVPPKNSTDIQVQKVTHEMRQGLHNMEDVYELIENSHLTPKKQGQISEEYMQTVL
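HEK 293 cells stably expressing TSHR and a modified CNG channel, with CNG-only parental cells as counterscreen, were preloaded 60 min at room temperature with membrane potential dye containing 100 uM RO 20-1724. Compound exposure was 30 min, and depolarization was read as fluorescence at 590 nm.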
Resorufin fluor: qHTS Assay for Spectroscopic Profiling in Resorufin Spectral Region. Compound fluorescence, resorufin region 547/598 nm, buffer; hits give high values. max dye-equivalent concentration, M. 59,000 tested, 0.04% active. AID 588, 2007; active = above 10 nM dye equivalent; inconclusive = 1 to 10 nM; inactive = 1 nM or less; a few of its hits are not listed in these tables; note: highest value over a series up to 38 µM
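Tris 100 mM pH 8.0; compound added, 15 min RT; CCD imager read, ex 547 nm/em 598 nm; signal normalized to resorufin standard curve (six concentrations per plate) as dye-equivalent concentration.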
A488 autofl: qHTS Assay for Spectroscopic Profiling in A488 Spectral Region. compound autofluorescence, A488 spectral region, dye equivalency; hits give high values. max dye equivalency, M. 59,000 tested, 0.1% active. AID 591, 2007; active = above 10 nM dye equivalent; inconclusive = 1 to 10 nM; inactive = 1 nM or less; about half of its hits are not listed in these tables;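 note: highest value over a series up to 38 µM; compound alone in buffer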
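Spectroscopic profiling in the A488 region: compounds in pH 8.0 Tris (100 mM), 15 min RT, CCD imaging with 480 nm excitation and 540 nm emission; responses normalized against A488 dye standards.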
AID923: qHTS Assay for Allosteric/Competitive Inhibitors of Caspase-1: Spectroscopic Profiling in AFC Spectral Region; compound fluorescence, AFC spectral region (405/520 nm); almost no hit is shown here; AID 923, 2007; 75,000 tested, 1.1% active; Potency, µM (series often up to 57.5 µM), for the others: at the top dose fluorescence increase, most hits filed as activators; active = well fitted activation curve with a large enough effect; inconclusive = small, poorly fitted or top-dose-only effect;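 note: potency is the fitted concentration of half-maximal effect; 0% is about no effect; scaled to a free AFC standard on each plate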
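Baseline compound fluorescence (AFC region, 405 nm ex/520 nm em) taken from the intercept of kinetic reads with 50 nM caspase-1 and 5 uM Ac-WEHD-AFC; normalized to an on-plate AFC standard curve; compounds titrated up to 57 uM.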
The depositor's hits bear a star; i = inactive; ? = inconclusive; nt = no result given; & = joins results of further samples; [ ] = another dose, or the depositor's remark. This is a subset; count on the stated rates, not on these rows.

SMILES,A647 fluor,TSHR ag,Resorufin fluor,A488 autofl,AID923
Oc1c(C=Nc2cccnc2)sc2ccccc12,1e-09,nt,i,i,nt
CC(O)[C@H](NC(=O)C1(c2ccccc2)CCN(C(=O)OC(C)(C)C)CC1)C(=O)O (some centres undefined),1.2e-08,?,i,i,2.7%
CC1CCC(C(=O)NC(C(=O)N2CCC(N3CCCCC3)CC2)C(C)C)CC1 (centres undefined),2.9e-08,18%,i,i,-1.7%
CC1CCCCN1CCNc1nc(=S)[nH]c2ccccc12 (centres undefined),1.5e-08,12%,i,i,-0.6%
CCN1CCc2c(C#N)c(NCc3ccccc3)nc(N(CC)CC)c2C1,1e-09,nt,i,i,nt
CC(C)(C)OC(=O)N1CCC(C(=O)N[C@H](Cc2ccccc2)C(=O)O)CC1,2e-08,4%[11.4 µM],i,i,-0.2%
C=CCC1C=CC(Oc2ccc(F)cc2C)C(CO)O1 (centres undefined),nt,1%[11.4 µM],nt,nt,0.0%[11.5 µM]
CCCc1ccc(-c2ccc(F)c(N)c2)nc1,nt,5%,nt,nt,5.9%
CC(=O)Nc1ccc(NC(=O)Oc2ccccc2)cc1,1.3e-09,-5%,i,i,0.3%
CCn1c(SCC(=O)NCc2ccc(C)cc2)nnc1-c1ccncc1,7.1e-09,-5%,i,i,0.1%
OCc1nn2c(c1Br)NC(c1ccccc1)CC2C(F)(F)F (centres undefined),4.9e-08,3%,i,i,-1.3%
O=C(Nc1ccccc1)N1CC[C@@]2(CCCN(C(=O)c3csnn3)C2)C1,2.7e-08,3%,i,i,5.5%
O=C(Cc1cccs1)Nc1nc2c(s1)CCCC2,1e-09,-10%,i,i,-0.7%
COc1ccc(C)cc1S(=O)(=O)N(CC(=O)O)c1ccccc1,9.9e-09,?,i,i,-2.6%
Cc1cc(Br)c(S(=O)(=O)NCCN2CCOCC2)cc1C,nt,5%,nt,nt,0.9%
CCOc1ccc2nc(NCCNC(=O)CC)c(C#N)cc2c1,3.7e-08,2%,i,i,1.3%
COC(=O)C1=C(N)Oc2cc(C)n(CC3CCCO3)c(=O)c2C1c1ccccc1OC (centres undefined),9.8e-09,-15%,i,i,0.1%
Cc1nnc2n(C3CCCCC3)c(=O)c3c4c(sc3n12)CCC4,1e-09,6%,i,i,0.8%
CC(C)C(=O)NC(C)C(c1cccs1)N1CCN(c2ccccc2)CC1 (centres undefined),3.4e-08,3%,i,i,4.2%
c1ccc(Cn2ccnc2-c2ccco2)cc1,1e-09,-7%,i,i,1.3%
CC(=O)Nc1cccc(NC(=O)Nc2ccc(C(C)=O)cc2)c1,2.4e-09,-18%,i,i,0.2%
ClC(=Nc1cccc2ccccc12)N(c1ccccc1)c1ccccc1,2.1e-08,-3%[11.4 µM],i,i,5.6%[11.5 µM]
O=S(=O)(NC1CCCCC1)c1ccc(Br)cc1,nt,24%[11.4 µM],nt,nt,0.3%
Cc1cc(C)nc(N2CCCC(C(=O)Nc3nc4ccc(S(C)(=O)=O)cc4s3)C2)n1 (centres undefined),8.4e-09,-1%[11.4 µM],i,i,-0.4%
O=C(c1cccc2c1-c1ccccc1/C2=N/O)N1CCCCC1,nt,?,nt,nt,0.0%
CCOC(=O)N1CCN(c2ncnc3c2oc2nc(C)c4c(c23)CC(C)(C)OC4)CC1,1e-09,8%,i,i,3.1%
COCc1[nH]nc2c1C(c1ccccc1OC)C(C#N)=C(N)O2 (centres undefined),1.8e-08&1e-09,1%,i,i,-0.7%
C=CCOC(=O)C(C(C)=O)C(NC(=O)OC)c1cccc(C(F)(F)F)c1 (centres undefined),nt,9%[11.4 µM],nt,nt,3.4%[11.5 µM]
CC(C(=O)Nc1ccc(S(=O)(=O)N2CCOCC2)cc1)N(c1ccccc1)S(C)(=O)=O (centres undefined),5e-08,-10%,i,i,-3.4%
COCCn1nnnc1C(C(C)C)N1CCOCC1 (centres undefined),3.5e-09,-1%,i,i,0.6%
COc1cc2c(cc1OC)C(c1ccc3c(c1)OCO3)CC(=O)N2 (centres undefined),1e-09,0%,i,i,-0.2%
Nn1cnnc1SCC(=O)Nc1ccc(C2CCCCC2)cc1,1e-09,-2%,i,i,-1.9%
CCOc1cc(C2C(C#N)=C(N)Oc3n[nH]c(-c4ccccc4)c32)ccc1O (centres undefined),3.9e-09,12%,i,i,-0.8%
Cc1ccccc1C(=O)N1CCCN(C(=O)c2ccccc2C)CC1,1.9e-08,27%,i,i,-0.9%
C#CCN(C)Cc1ccccc1,1e-09&1e-09&1e-09,nt,i,i,0.8%[25.7 µM]
O=C(O)Cc1ccc2[nH]c3ccc(CC(=O)O)cc3c2c1,1.4e-08,0%,i,i,1.3%
O=CN1CCN(C2CC(=O)N(c3ccc(Br)cc3)C2=O)CC1 (centres undefined),1.3e-08,5%,i,i,0.4%
N=C(N)SCCSC(=N)N,6.3e-09,-5%[11.4 µM],i,i,-4.1%[11.5 µM]
CN(c1ccccc1C(=O)N1CCOCC1)S(C)(=O)=O,5.2e-09,1%,i,i,-0.9%
CCOc1ccc(C(C)=O)cc1N1C(=O)C2C3C=CC(C3)C2C1=O (centres undefined),2.3e-09,-5%,i,i,-0.4%
N#Cc1c(N)nc2c(c1-c1ccccc1)CCCC2,nt,28%,nt,nt,-3.2%
COc1ccccc1NC(=O)N1CCCC1C(=O)NCc1ccccc1F (centres undefined),4e-08,12%,i,i,0.6%
Nc1ccc2oc(-c3cccc(Br)c3)nc2c1,nt,-15%,nt,nt,9.1%
CCN(CC)C(=O)CSCC(=O)Nc1ccccc1,6.8e-09,13%,i,i,-1.1%
Cc1cc(=O)[nH]c2cc3oc4ccccc4c3cc12,1e-09,4%[11.4 µM],i,i,-3.0%[11.5 µM]
Cc1nn(C)cc1CN(C)C(=O)c1nn2c(c1Cl)NC(c1cccs1)CC2C(F)(F)F (centres undefined),1.1e-09,3%,i,i,0.7%
COC(=O)c1cccc(NC(=O)Cn2cnc3ccccc3c2=O)c1,2.7e-09,-8%,i,i,-2.5%
O=C(c1ccc2c(c1)OCO2)N1CCN(c2ccccc2F)CC1,1e-09,5%,i,i,3.5%
CCOC(=O)c1ccc(NC(=O)CCc2nc(-c3ccc(C)cc3)no2)cc1,6.5e-09,nt,i,i,1.0%
C[C@H]1CC(C)(C)C[C@@](OCCN2CCCCC2)(c2ccccc2)C1,5.3e-08,?,i,i,-5.0%[11.5 µM]

(more compounds)
SMILES,A647 fluor,TSHR ag,Resorufin fluor,A488 autofl,AID923
CCOc1cc(C(=S)N2CCN(C)CC2)ccc1OCC(=O)N1CCOCC1,3.3e-08,0%,i,i,-0.8%
COC(=O)c1cc(NC(=O)c2ccoc2C)cc(C(=O)OC)c1,1e-09,-9%,i,i,0.6%
Nc1nonc1C(=Nc1ccccc1)NO,1e-09,-6%,i,i,1.7%
Cc1ccc(C2C(C#N)=C(N)Oc3n[nH]c(C)c32)cc1 (centres undefined),4.6e-09,-5%,i,i,-1.1%
COc1ccc(C2C(=O)N(C3CCCCC3)CC(=O)N2CCc2ccccc2)cc1OC (centres undefined),1e-09,9%,i,i,-0.2%
COCCn1nnnc1C(c1cccs1)N1CCN(c2ccccc2)CC1 (centres undefined),9.5e-09,10%,i,i,0.7%
O=C(O)C1CC(=O)N(c2ccc(Br)cc2)C1 (centres undefined),3.2e-08,-6%,i,i,2.1%
CC(=O)OC(C(=O)NCS(=O)(=O)c1ccc(C)cc1)c1cccnc1 (centres undefined),1e-09,2%,i,i,0.1%
Cc1ccn2cc(CCNC(=O)CC(C)(C)C)nc2c1,1e-09,-4%,i,i,-1.7%
Cc1ccc2cc(CCNC(=O)c3ccc(Br)o3)c(=O)[nH]c2c1,9.8e-09,10%,i,i,1.0%
COc1cccc(-n2ccnc2SCC(=O)Nc2cc(OC)ccc2OC)c1,3.5e-09,?,i,i,1.5%
CCOc1nc(CC)nc(NC(=O)NS(=O)(=O)c2ccccc2Cl)n1,nt,4%,nt,nt,3.2%
O=C(Nc1ccc(-c2nc3cccnc3s2)cc1)c1ccc(Br)o1,nt,1%,nt,nt,12%
Cc1noc(C)c1COC(=O)CCCOc1ccc(Cl)cc1Cl,3.9e-09,26%,i,i,1.1%
CCOc1ccccc1NC(=O)CSc1ccccc1,nt,?,nt,nt,-1.1%
c1ccc(CC2CCN(c3nc(N4CCOCC4)nc(N4CCOCC4)n3)CC2)cc1,6.7e-09,7.9µM*,i,i,1.5%
CC(C)CC(=O)Nc1ccc(C(=O)COc2ccc(-c3nnco3)cc2)cc1,1.9e-08,16%[11.4 µM],i,i,0.3%
c1ccc(CCNc2c3c(nc4ncnn24)CCC3)cc1,5.9e-09,?,i,i,0.9%
CC(=O)n1c(COS(C)(=O)=O)nc2ccccc21,1e-09,-1%[11.4 µM],i,i,-2.8%[11.5 µM]
CCOc1ccc(NC(=O)C2CC(=O)NC(N3CCc4ccccc43)=N2)cc1 (centres undefined),3.2e-08,nt,i,i,-0.3%
COc1cccc(C(=O)CSc2nnc(CNS(=O)(=O)c3ccc(C)cc3)n2C)c1,5.4e-08,18%,i,i,0.7%
CCOc1cc(CN2CCN(C(=O)CC(C)C)CC2)ccc1OC,1.7e-08,0%,i,i,0.1%
Cc1cc(C)n(C(=O)c2ccc(NC(=O)CC(C)C)cc2)n1,6.1e-09,10%,i,i,1.0%
O=S(=O)(Nc1ccc2c(c1)OCO2)c1ccc(Br)s1,3.4e-08,5%,i,i,-1.6%
COc1cc(NC(=O)CSc2nnc(C)s2)cc(OC)c1OC,5.6e-09,?,i,i,-0.6%
Cc1cc(NC(=O)CSc2ccc3nnc(-c4ccc(Cl)cc4)n3n2)no1,1.7e-09,8%,i,i,-0.1%
COc1ccc(N2CCN(C(=O)CCCn3c(=S)[nH]c4cc5c(cc4c3=O)OCO5)CC2)cc1,6.9e-09,9%,i,i,-0.3%
Cc1ccc(S(=O)(=O)NC(=O)c2cc(C)n(CCCN3CCOCC3)c2C)cc1,4.8e-09,-5%,i,i,0.5%
COc1cc(-c2nc(S(=O)(=O)c3ccc(Cl)cc3)c(N(C)C)o2)cc(OC)c1OC,1.8e-08,24%,i,i,-1.1%
CCOC(=O)CN(C(=O)CSc1nnc(CNc2ccc(F)cc2)o1)c1ccccc1,2.8e-09,11%,i,i,0.5%

Looked up one by one from the list above (2):
SMILES,A647 fluor,TSHR ag,Resorufin fluor,A488 autofl,AID923
Cc1ccc(S(=O)(=O)NC(=O)c2cc(C)n(CCCN3CCOCC3)c2C)cc1,4.8e-09,-5%,i,i,0.5%
COc1cccc(C(=O)CSc2nnc(CNS(=O)(=O)c3ccc(C)cc3)n2C)c1,5.4e-08,18%,i,i,0.7%

High-throughput results: PubChem, National Center for Advancing Translational Sciences (NCATS)
